H5N1 antiviral: MDCK cell protection from H5N1 avian flu; actives 0.07% (n = 96,000); cytopathic effect, luminescence, 72 h; stronger effect = higher value; no value below 0 was filed and about half of the inactive calls have no number; reference of the scale not given here; inhibition, % at 50 µM; AID 740, 2007; in the data active = inhibition above about 25%
Starred values were filed as active, the others as inactive; i = inactive. Some of the compounds tested (hit frequency here may not be typical).

SMILES	H5N1 antiviral
CCNC(=O)C1CC(=O)N(Cc2ccc(F)cc2)C(=Nc2ccc(OC)cc2)S1 (stereo unspecified)	i
COc1ccc(-c2nnc(SCc3nnc(-c4ccccc4)o3)n2C)cc1OC	0.8
O=C(c1ccccc1F)N(Cc1ccccc1)C1CCS(=O)(=O)C1 (stereo unspecified)	0.1
Cc1cc(=O)oc(C)c1C(=O)NCc1ccc(F)cc1	1.6
C=CCNC(=O)c1onc(CSc2cccc(OCC)c2)c1C(=O)O	0.6
O=C(COc1ccc(S(=O)(=O)N2CCCC2)cc1Cl)N1CCN(c2ccccc2)CC1	9.4
Cc1cc(/N=C/C=C2\N(C)c3ccccc3C2(C)C)n(CCC#N)n1	2.8
Cc1cccc(N(CC(=O)N2CCOCC2)S(C)(=O)=O)c1C	0.5
COc1cc2c(cc1OC)C(c1ccsc1)CC(=O)N2 (stereo unspecified)	0.2
CSc1nc(N)nc(SCC(=O)Nc2ccc(Cl)cc2)c1C#N	i
CCCCN1C(=O)NC(=O)C2(Cc3cc(C)ccc3N(C)C2)C1=O (stereo unspecified)	0.3
CCCSc1nnc(Cn2c(=O)sc3ccccc32)n1-c1ccccc1	11.6
CCCCN1CC(COc2ccccc2)OC1=O (stereo unspecified)	i
O=C(O)CCC(=O)Nc1nc2nc(-c3ccccc3)cc(-c3ccccc3)n2n1	2.1
OCCN1C2CCC1CC(O)(c1ccc(F)cc1)C2 (stereo unspecified)	0.4
COc1ccc(CCNC(=O)CSc2cc(=O)[nH]c(N)n2)cc1OC	0.3
COc1ccc(/C=C/C(=O)NCC(=O)N/N=C/c2cc(Br)ccc2OC)cc1	0.2
COc1ccccc1NC(=O)CCC(=O)Nc1ccccc1OC	0.1
CCc1nc2sc3c(c2c(=O)o1)CCCC3	i
CCCN(CCC)c1nc(N)c(C#N)c(CC#N)c1C#N	0.9
CSc1nc2n(n1)C(c1cccc(F)c1)C(C(=O)Nc1ccc(C)cc1C)=C(C)N2 (stereo unspecified)	i
CC1(C)Cc2cccc(OCC(=O)N3CCN(S(=O)(=O)c4ccccc4)CC3)c2O1	0.7
N#CC1=C(N)NC(SCC(=O)c2ccc(Cl)cc2)=C(C#N)C12CCCC2	i
CCOc1ccc(C2c3c(oc4ccccc4c3=O)C(=O)N2CCCN2CCOCC2)cc1 (stereo unspecified)	i
COCCN1C(=O)C(=O)/C(=C(/O)c2ccc(OC(C)C)cc2)C1c1cccnc1 (stereo unspecified)	i
Cc1c(NC(=O)/C=C/C(=O)O)cccc1[N+](=O)[O-]	0.2
COc1nc(-c2ccccc2Cl)ccc1C#N	0.1
CCOC(=O)COc1nc(C)c(Br)c(OC)n1	0.9
Cc1cc2cc(CN(Cc3ccc4c(c3)OCO4)C(=O)c3ccco3)c(=O)[nH]c2cc1C	1.4
COc1cc2c(cc1OC)-c1nnnn1C(C)(C)C2	0.3

A draw from above in order of heavy-atom count, highest first:
SMILES	H5N1 antiviral
CCOc1ccc(C2c3c(oc4ccccc4c3=O)C(=O)N2CCCN2CCOCC2)cc1 (stereo unspecified)	i
Cc1cc2cc(CN(Cc3ccc4c(c3)OCO4)C(=O)c3ccco3)c(=O)[nH]c2cc1C	1.4
CC1(C)Cc2cccc(OCC(=O)N3CCN(S(=O)(=O)c4ccccc4)CC3)c2O1	0.7
COCCN1C(=O)C(=O)/C(=C(/O)c2ccc(OC(C)C)cc2)C1c1cccnc1 (stereo unspecified)	i
COc1cc2c(cc1OC)-c1nnnn1C(C)(C)C2	0.3
COc1nc(-c2ccccc2Cl)ccc1C#N	0.1

More structures follow.
SMILES	H5N1 antiviral
Cc1nnc(SCc2cccc(Oc3ccccc3)c2)n1N	3.4
CCOC(=O)N1CCC(NC(=O)C2CCCCN2S(=O)(=O)c2ccc(F)cc2)CC1 (stereo unspecified)	0.3
Nn1c(Cc2cccc3ccccc23)nnc1SCC(=O)NC1CCS(=O)(=O)C1 (stereo unspecified)	i
CCOC(=O)Cc1c(C)nc2cc(-c3ccc(C(C)(C)C)cc3)[nH]n2c1=O	i
Brc1ccc(OCCOCCN2CCOCC2)cc1	0.5
COc1ccccc1C1CC(=O)NC(C)=C1C(=O)OCC1CCCO1 (stereo unspecified)	i
COc1ccc(-c2oc(NC(=O)CSc3nncn3C)c(C#N)c2-c2ccc(OC)cc2)cc1	i
CC(=O)NCCNC(=O)CCNC(=O)c1ccc(Cl)cc1	i
Cc1ccc(NC(=O)CSc2nnc(-c3ccncc3)n2C)cc1C	i
CCC1(C)Cc2c(sc3nc(NC)n(C)c(=O)c23)CO1 (stereo unspecified)	0.5
Cc1ccc(C)c(N(CC(=O)Nc2cc(Cl)ccc2Oc2ccccc2)S(C)(=O)=O)c1	i
O=C(OC1CCN(c2ccc([N+](=O)[O-])cc2)CC1)c1ccccc1	0.5
C=CCN1C(=O)CN=C1Nc1ccccc1	i
Cn1c(=O)c2c(-c3ccccc3)n(N3CCOCC3)cc2n(C)c1=O	0.6
C=CCn1c(SCC(=O)Nc2ccc3c(c2)OCO3)nnc1-c1ccccc1O	i
O=C(CCn1nnc2ccccc21)N1CCC(O)(c2cccc(F)c2)CC1	0.9
Cc1cc(NC(=O)CSc2nc3sc(C)c(C)c3c(=O)n2C2CCCC2)no1	3.5
COc1cccc(-c2n[nH]c(=S)n2Cc2ccco2)c1OC	0.3
O=C(Cn1c(C(=O)NCc2ccco2)cc2sccc21)c1ccccc1	1.2
Cc1ccc(S(=O)(=O)N2CCOCC2)cc1C(=O)Nc1ccccn1	4.1
CSc1nc(N)c(C#N)c(-c2ccc(Cl)cc2)c1C#N	1.1
CCOc1ccc(C2C(C#N)=C(N)N(c3sc4c(c3C#N)CCCC4)C3=C2C(=O)CCC3)cc1 (stereo unspecified)	i
Cc1cccc(NC(=O)CSc2nnc(-c3cnccn3)n2Cc2ccco2)c1	0.2
CCOc1ccccc1NC(=S)NCc1ccco1	i
CCOC(=O)C(C(=O)N(C)C)c1ncc(C(F)(F)F)cc1Cl (stereo unspecified)	0.2
C/C(=N\NC(=O)C1COc2ccccc2O1)c1ccc(C)o1 (stereo unspecified)	i
Cc1cc(C)n2nc(SCC(=O)Nc3ccc(F)cc3)nc2n1	i
O=C(/C=C1\NCC2c3ccccc3CCN2C1=O)c1ccccc1 (stereo unspecified)	i
Cn1c(=O)n(C)c2cc(CNc3ccc(N4CCOCC4)c(C(=O)O)c3)ccc21	i
CCCCOC(=O)CSc1n[nH]c(=O)[nH]c1=O	i

Quoted from the listing.
`COc1cc2c(cc1OC)C(c1ccsc1)CC(=O)N2` (stereo unspecified) | H5N1 antiviral: 0.2
`CCOC(=O)COc1nc(C)c(Br)c(OC)n1` | H5N1 antiviral: 0.9

Next section.
SMILES	H5N1 antiviral
Nc1c(NCCCN2CCOCC2)c2ccccc2oc1=O	1.9
COc1ccccc1C(=O)Nc1nnc(C)s1	0.3
CCOC(=O)C1CCN(S(=O)(=O)c2cnc[nH]2)CC1	i
Nn1c(SCC(=O)Nc2ccc3c(c2)OCO3)nnc1C1CCCCC1	2.0
COCCCNC(=O)CS(=O)Cc1nc(-c2ccccc2C)oc1C (stereo unspecified)	0.3
Cc1nc2ccccc2c2c1C(=O)N(C1CCCCCCC1)C2=O	1.1
Cn1c(=O)c2cc(NC(=O)c3ccccc3Cl)c(=O)oc2n(C)c1=O	i
Cn1c(CNc2ccccc2O)nc2ccccc21	3.4
CC(C)COc1ccc(C(=O)OCCN2CCOCC2)cc1	0.7
Cc1ccc2c(c1)c1c(n2CC(O)Cn2nc(C)c(Br)c2C)CCCC1 (stereo unspecified)	i
CC1CCN(C(=O)Nc2cccc(NC(=O)N3CCC(C)CC3)c2)CC1	i
COc1ccc2c(c1OC)C(=O)OC2Nc1ncc(Br)cc1Br (stereo unspecified)	0.7
O=C1CCCc2ccccc2N1Cc1ccccc1Cl	1.2
O=C1c2ccccc2C(=O)N1CCc1nc(-c2ccncc2)no1	i
CC(=O)N1CCN(c2ccc(NC(=O)c3ccc4c(c3)OCCO4)cc2)CC1	0.2
COc1ccccc1NC(=O)CSc1nnc(CC(=O)Nc2cccc(C(F)(F)F)c2)n1C	0.3
COc1cccc(NS(=O)(=O)Cc2ccccc2)c1	0.3
Nc1nnc(SCC(=O)Nc2ccc3c(c2)OCCO3)s1	0.7
O=C(CN1CCC(O)(c2ccccc2F)CC1)NCCc1c[nH]c2ccccc12	i
C=CCn1c(SCC(=O)Nc2sccc2C(N)=O)nc2ccccc2c1=O	i
O=C(Nc1ccc(S(=O)(=O)N2CCCCCC2)cc1)C1CCCO1 (stereo unspecified)	0.5
N#Cc1cn(Cc2cccc(Cl)c2)c2ccccc12	i
C/C(CC(=O)Nc1ccc(N(C)C)cc1)=N\NC(=O)c1ccccn1	i
Cc1ccc(C(=O)Nc2sc3c(c2C(=O)O)CCCCC3)o1	i
O=C(Nc1ccccc1)Nc1ccc(S(=O)(=O)N2CCCCC2)cc1	i
CC(c1nnc(SCC(=O)Nc2ccc3[nH]c(=O)[nH]c3c2)n1Cc1ccccc1)N(C)C (stereo unspecified)	0.2
CCN(CC)CCN1C(=O)C(=O)/C(=C(/O)c2c(C)[nH]c(C(=O)OC)c2C)C1c1ccccc1OC (stereo unspecified)	i
Cc1ccccc1C(=O)NCCSc1ccccc1	0.2
CSc1nnc2c3c4c(sc3c(=O)n(-c3ccccc3)n12)CC(C)(C)OC4	1.0
O=C1CC2C(CC(OC(=O)c3ccc(-c4ccccc4)cc3)C2CO)O1 (stereo unspecified)	i
COc1ccccc1NC(=O)COc1ccc(C(=O)OCC(=O)N(C(C)C)C(C)C)cc1OC	0.4
O=C1c2cccnc2C(O)N1Cc1ccco1 (stereo unspecified)	i
O=C(NCc1ccccc1)c1cc(S(=O)(=O)N2CCC3(CC2)OCCO3)ccc1F	i
CC(=O)NC(C)C(c1cccs1)N1CCN(c2ccccc2)CC1 (stereo unspecified)	0.5
CCC(C)NC(=O)c1csc2c1CCCCC2 (stereo unspecified)	i
O=C(c1c(Cl)nc2sccn12)N1CCN(c2cccc(Cl)c2)CC1	i
O=C(Nc1ccc(S(=O)(=O)N2CCN(c3ccccc3)CC2)cc1)c1cccs1	1.7
Cc1ccc(Cn2nnc3c(=O)[nH]c(C4CCN(S(=O)(=O)c5ccc(F)cc5)CC4)nc32)cc1	1.2
CCCCCC1CC(CC(C)C(=O)Nc2nncs2)C(=O)O1 (stereo unspecified)	i
Cc1ccc(NC(=O)/C(=C\c2ccc([N+](=O)[O-])cc2)NC(=O)c2ccccc2)cc1	0.6

In the list so far, these contain a nitro group on carbon:
SMILES	H5N1 antiviral
Cc1c(NC(=O)/C=C/C(=O)O)cccc1[N+](=O)[O-]	0.2
O=C(OC1CCN(c2ccc([N+](=O)[O-])cc2)CC1)c1ccccc1	0.5
Cc1ccc(NC(=O)/C(=C\c2ccc([N+](=O)[O-])cc2)NC(=O)c2ccccc2)cc1	0.6

Remaining list, next part
SMILES	H5N1 antiviral
CCOC(=O)c1c(C)[nH]c(C(=O)O)c1C	1.2
O=C(CC1CC2CCC1C2)NCc1cccs1 (stereo unspecified)	0.1
O=C(CSc1nnc(-c2ccco2)c(-c2ccco2)n1)Nc1ccccc1	0.3
Cc1nc(-n2ncc(C#N)c2N)c2c3c(sc2n1)CCC3	1.1
O=C(N/N=C\c1ccc(Cl)cc1Cl)c1sccc1-n1cccc1	i
COc1ccc(OC)c(CNc2ccc(F)c(Cl)c2)c1	i
CCCn1nnnc1SCC(=O)Nc1cccc(NC(=O)c2ccco2)c1	i
Cc1c(Nc2c3c(c(C#N)c4nc5ccccc5n24)CCC3)c(=O)n(-c2ccccc2)n1C	0.4
CSc1nc(C)cc(C)c1C#N	i
O=C(Nc1cccc(-c2nc3cccnc3s2)c1)c1ccco1	0.4
CCC(C)NC(=O)Cn1nc([N+](=O)[O-])c(Cl)c1C (stereo unspecified)	0.9
CCCCc1ccc(/C=C2\C(=O)c3ccccc3C(O)=C2C(=O)OCC)cc1	i
CC(C)NCc1c(O)c(Br)cc2oc3c(c12)CCCC3	0.1
Cc1cccc(NC(=O)CSc2nnc(NC(=O)CN3CCOCC3)s2)c1	i
Cc1cc(NCCCn2ccnc2)n2ncc(-c3ccc(Cl)cc3)c2n1	i
COC(=O)Nc1nnc(-c2ccncc2)s1	0.5
CCCNC(=O)c1n[nH]c(=O)c2ccccc12	0.4
COC(=O)c1[nH]c2ccc(Cl)cc2c1NC(=O)CN1CCc2cc(OC)c(OC)cc2C1	i
CCn1nnnc1SCC(=O)Nc1nnc(C(C)C)s1	0.1
Cn1c(CCNC(=O)c2cccs2)nnc1SCC(=O)Nc1nc(-c2ccccc2)cs1	0.3

2 compounds picked at random from the list so far, as already listed:
SMILES	H5N1 antiviral
CC(C)NCc1c(O)c(Br)cc2oc3c(c12)CCCC3	0.1
Cc1cccc(NC(=O)CSc2nnc(NC(=O)CN3CCOCC3)s2)c1	i

Following part.
SMILES	H5N1 antiviral
COc1cccc(OCC(=O)NNC(=O)c2cccs2)c1	0.3
COc1ccc(NCc2nc3ccccc3n2CCOc2ccccc2)cc1	3.2
O=C(O/N=C1/CCCc2occc21)c1ccccc1	i
COc1ccc(-c2nc3cccc(C)n3c2NCc2ccco2)cc1OC	0.5
N#CC1=C(N)C(C#N)(C#N)[C@H](c2ccsc2)[C@H]2COCC=C12	1.3
CCOC(=O)CSc1nnc(CNC(=O)c2ccc(S(=O)(=O)N3CCCC3)cc2)n1C	1.4
COc1cc(C(=O)Nc2ccc3c(c2)OCCO3)c(-n2cnnn2)cc1OC	i
Cc1nn(Cc2ccccc2)c2c1C(c1cccnc1)C(C#N)=C(N)O2 (stereo unspecified)	i
CCC1Nc2ccccc2-c2nnc(SC)nc2O1 (stereo unspecified)	i
O=C(NCC1CCCO1)Nc1ccccc1 (stereo unspecified)	0.1
CS(=O)(=O)N1CCCC(C(=O)NCc2ccc(F)cc2)C1 (stereo unspecified)	1.1
Cc1cc(N(C)C)c(C#N)c(N2CCCCC2)n1	0.3
Nc1ccc(C23CC4CC(CC(O)(C4)C2)C3)cc1	i
CSc1nnc2c(n1)OC(c1ccsc1)N(C(C)=O)c1ccccc1-2 (stereo unspecified)	1.6
COc1ccccc1-c1noc(-c2ccccc2C(=O)Nc2cccnc2)n1	0.2
Cc1ccccc1NC(=O)c1onc2c1CCCC2	0.2
CC(=O)Nc1c(-c2ccc(F)cc2)nc2ccccn12	2.5

Source: PubChem (SRMLSC)
